Calb biofilm kill = mixtures killing C. albicans biofilm; inhibition, % at 7.6 µM; C. albicans biofilm persisters + clotrimazole, fluorescence viability; primary screen in compound mixtures of four per well; hit rate 0.02% among 120,000;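 active = inhibition above 30.3% in the primary screen of four-compound pools, then above 30% when the compound was retested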;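 note: compounds exposed to preformed 24 h biofilms for 48 h; the number belongs to the whole pool; some results filed as inactive read as strong as hits; inactives centre near 12; 0% = biofilm with clotrimazole alone and 100% = kill control; retested singly at about 60 µM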
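Test system: C. albicans biofilms. Buffer or medium: RPMI/MOPS medium, pH 7.0. Timing: 48 h compound exposure at 37 °C. Technique: Alamar Blue fluorescence. Evaluation: percent inhibition of biofilm viability.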
The depositor's hits bear a star. An excerpt. The share of hits here may be higher or lower than overall.

Molecule,Calb biofilm kill
CC(C)CCN(CCC(C)C)C(=O)Cc1c(O)c2ccccc2[nH]c1=O,16
COc1cc(C(=O)Nc2cccc(C)c2C)c(Br)c(OC)c1OC,10
COc1ccc(/C=C/C(=O)O)cc1COc1cccc(C)c1,-3
Cc1ccccc1COCCN1CCN(S(=O)(=O)c2ccccc2)CCC1=O,16
Cn1c(=O)cc(C(=O)N/N=C/c2ccc(Cl)cc2)[nH]c1=O,26
Nc1cc(C(=O)c2ccccc2)ccc1[N+](=O)[O-],16
Cc1ccccc1NC(=O)C1C2/C=C\CCCCC21 (stereo unspecified),22
Oc1cccc2ccc(/C=C/c3ccc(Br)s3)nc12,12
S=C(Nc1cccnc1)Nc1cccc2cnccc12,20
Cc1ccc(NC2=C(Cl)C(=O)N(C3CCCCC3)C2=O)cc1,19
COCCCNc1nc2ccccc2nc1NS(=O)(=O)c1ccc(C)cc1C,25
COc1ccc(Nc2nc(NCc3ccco3)nc(N/N=C/c3ccccc3Cl)n2)cc1,13
COc1ccc(-c2c(C(F)(F)F)[nH]n3c(=O)cc(-c4ccccc4)nc23)cc1,20
CCOc1ccc(NS(=O)(=O)c2cnc(Cl)c(Cl)c2)cc1,21
O=C(N/N=C/c1cccc([N+](=O)[O-])c1O)c1cccs1,22
C=CCc1ccccc1OCC(=O)O,6
Cc1ccc(S(=O)(=O)N2CCC(=O)N(CCOCc3ccc(Cl)cc3)CC2)cc1,7
O=C(N/N=C/c1ccc(Br)s1)Nc1ccccc1,10
COc1ccc(CN(C)C(=O)c2cnc(OC)cc2C(F)(F)F)c(OC)c1,10
CC(NC(=S)Nc1ccc(OC(F)F)c(Cl)c1)C(C)(C)C (stereo unspecified),1
CCCn1c(SCC(=O)c2ccc3c(c2)OCCO3)n[nH]c1=O,4
C/C(=N\NC(=O)c1cccc(S(=O)(=O)N2CCOCC2)c1)c1ccco1,9
Cc1ccc(-n2c(=O)c3sccc3n(Cc3cc(=O)n4ccccc4n3)c2=O)cc1F,10
Cc1c(NS(=O)(=O)c2cccc(C(=O)OCC(=O)N(C)C3CCCCC3)c2)c(=O)n(-c2ccccc2)n1C,14
Cc1ccc(CNC(=O)C2CCN(S(=O)(=O)N3CCCCC3)CC2)cc1,15
Cc1nn(CC(=O)N/N=C/c2ccc(F)cc2)c(C)c1[N+](=O)[O-],7
Cn1c(CNC(=O)OC(C)(C)C)nnc1SCc1c(Cl)cccc1Cl,2
CNC(=O)C(=O)NCCCN1CCOCC1,22
COCCNc1nc2nonc2nc1N1CCC(N(C)C)C1 (stereo unspecified),7
COc1ccc(-n2nc([N+](=O)[O-])c(=NCCCN3CCCC3=O)n2O)cc1,6
CCOc1ccc(C(=O)Nc2cccc(SC)c2)cc1,10
Cc1ccc(C(=O)N/C(=C\c2cn(C)c3ccccc23)C(=O)OCCN(C)C)cc1,22
COc1ccc(CNC(=O)c2ccc[nH]2)cc1,14
COc1cccc(CSc2nc3ccccc3[nH]2)c1,6
Cc1ccc(N2N=C(c3ccc(F)cc3)CC2c2ccco2)cc1 (stereo unspecified),26
O=C(Nc1ccc(C(=O)NC2CCCCC2)cc1)c1cccnc1,17
COCc1cc(=O)n2[nH]c(N)nc2n1,13
O=C(Nc1nnc(C(F)(F)F)s1)c1ccc(Br)s1,13
CC(C)C(Sc1nc(-c2ccccc2)cc(-c2ccccc2)c1C#N)C(=O)O (stereo unspecified),15
CSCCC(NC(=O)c1ccc(Cl)cc1)C(=O)OCC(C)=O (stereo unspecified),-4
N/C(CS(=O)(=O)c1ccc(F)cc1)=N\O,19
COc1cccc(/C=C2\SC(=S)N(C(Cc3ccccc3)C(=O)O)C2=O)c1 (stereo unspecified),18
C=CCOc1c(CCC)cc(CCC)cc1C(N)=O,13
COc1ccccc1NC(=O)COC(=O)c1cnc(C)cn1,15
O=C(CNC(=O)c1ccc(F)cc1)Nc1ccccc1C(F)(F)F,18
Nc1ncnc(Oc2ccccc2F)c1[N+](=O)[O-],9
COC(=O)c1c(NC(=O)CSc2nnc3ccccn23)sc2c1CCC2,11
CC(C)c1ccc(Nc2nc(Cl)nc(NCc3ccco3)n2)cc1,17
O=C(CC1SC(=O)NC1=O)Nc1ccc(Cl)cc1 (stereo unspecified),17
N#Cc1c(-c2ccc(F)cc2)c2c([nH]c1=O)-c1ccccc1OC2,9

New compounds follow.
Molecule,Calb biofilm kill
CC(OC(=O)c1ccccc1Br)C(=O)Nc1nc(-c2cccc([N+](=O)[O-])c2)cs1 (stereo unspecified),9
CSc1c(C#N)sc(=S)n1-c1ccc(C)cc1,12
CCCC(C)NC(=O)c1cc(C(=O)OC)cc([N+](=O)[O-])c1 (stereo unspecified),15
CC(C)(C)OC(=O)N1CCOCCOCCNCCOCCOCC1,10
O=[N+]([O-])c1cc(/C=N/Nc2nc3ccccc3[nH]2)c(O)cc1O,6
O=C1OCc2cccc([N+](=O)[O-])c21,17
COC(=O)c1sccc1S(=O)(=O)Nc1ccc(C)cc1,12
CC(=O)c1cccc(NC(=S)NC(=O)c2ccccc2)c1,20
Cc1ccc(C)c(OCC(=O)NCCNC(=O)COc2cc(C)ccc2C)c1,9
COc1ccc(N2C(=O)C3C(c4ccc(C(=O)O)cc4)NC(Cc4ccccc4)(C(=O)O)C3C2=O)c([N+](=O)[O-])c1 (stereo unspecified),26
CC(=O)Nc1ccc(/C=C2\Sc3ccccc3C2=O)cc1,13
CCN1CCCC1CN(Cc1cc2ccc(C)cc2[nH]c1=O)C(=S)Nc1ccccc1OC (stereo unspecified),6
C=C1SC(=Nc2c(C)cccc2Cl)N(C(=O)c2sc3ccccc3c2Cl)C12CCCCC2,14
CC1CCCCN1C(=S)NCc1ccco1 (stereo unspecified),0
CCCCCCCCNC(=O)/C(C#N)=C/c1ccccc1[N+](=O)[O-],13
COC(=O)c1cc(OC)nc2c1c(=O)n(C)c(=O)n2C,12
O=C(COc1ncnc2ccccc12)NCC1CCCO1 (stereo unspecified),-4
O=C1CSC(=S)N1N1C(=O)c2cccc([N+](=O)[O-])c2C1=O,16
O=C1/C(=C/c2cccs2)SC(=S)N1NS(=O)(=O)c1ccccc1,22
CC(=O)Nc1cc(C(=O)N(C)Cc2ccco2)ccc1Sc1ccc(C)cc1,17
CC(=O)Nc1ccc(C(=O)Cn2c3[n+](c4c(F)c(F)ccc42)CCCCC3)cc1,11
COc1ccc(N=CC=C2OC(C)(C)C(C)(C)O2)cc1OC,19
CC1=N/C(=C\c2ccc3c(c2)OCO3)C(=O)N1c1ccc(C(=O)O)cc1,3
COc1ccc(N2C(=O)[C@@H]3[C@H](C2=O)[C@H]2C=CC=NN2[C@@H]3C(=O)Nc2ccc(Cl)cc2)cc1,22
Cc1cc2c(NC(=O)Nc3ccc(C(F)(F)F)cc3)cccc2nn1,15

Part of the list above, with each value named:
CCN1CCCC1CN(Cc1cc2ccc(C)cc2[nH]c1=O)C(=S)Nc1ccccc1OC (stereo unspecified)
  Calb biofilm kill = 6

O=C1CSC(=S)N1N1C(=O)c2cccc([N+](=O)[O-])c2C1=O
  Calb biofilm kill = 16

CC1CCCCN1C(=S)NCc1ccco1 (stereo unspecified)
  Calb biofilm kill = 0

COc1ccc(N=CC=C2OC(C)(C)C(C)(C)O2)cc1OC
  Calb biofilm kill = 19

(further entries)
Molecule,Calb biofilm kill
Cc1cc(SCC2=NNC(=O)C2)c(Cl)cc1Cl,16
Fc1ccccc1NC(=S)N1CCN(Cc2ccc3c(c2)OCO3)CC1,20
COc1ccc(CN(C(=O)CN2C(=O)c3ccccc3S2(=O)=O)C(C(=O)NCC2CCCO2)c2ccncc2)cc1 (stereo unspecified),14
CCc1ccc(OCCOCC(O)CN2CCN(Cc3ccc(Cl)cc3)CC2)cc1 (stereo unspecified),8
C(=N\NC1=Nc2cccc3cccc1c23)/c1cccnc1,9
CCCC(=O)n1nc(-c2cccnc2)nc1NCc1ccccc1,-2
O=C(COc1ccc2ccc(=O)oc2c1)Nc1ccc(N2CCOCC2)cc1,5
Cc1cc(C(=O)COC(=O)Cc2n[nH]c(=O)c3ccccc23)c(C)n1-c1ccc2c(c1)OCCO2,11
COc1ccc(/C=C2\SC(=S)N(C(C(=O)O)c3ccccc3)C2=O)c(OC)c1 (stereo unspecified),29
Cc1ccccc1/C(N)=N/O,-5
Nc1c(Cl)ncnc1N/N=C/c1ccnc2ccccc12,11
CCOC(=O)c1c(CN(CC)CC)n(C)c2cc(Br)c(O)cc12,14
CCOC(=O)NC1c2ccccc2Oc2ccccc21,16
COc1cccc(NC(=S)/C(=C(\[O-])c2ccc(OC(F)F)cc2)[n+]2ccccc2)c1,19
O=C(Nc1cccc(Cl)c1N1CCOCC1)c1ccc2c(c1)OCCO2,6
COCc1[nH][nH]c(=O)c1C=Nc1ccc(OC(F)(F)F)cc1,9
C=CCN(C(=O)CSc1nc2ccsc2c(=O)n1Cc1ccccn1)c1ccccc1,6
Cn1c(=O)n(C)c2cc([N+](=O)[O-])c(N3CCN(C(=O)C(C)(C)C)CC3)cc21,4
N#Cc1c2ccc(O)cc2n2ccccc12,14
CCn1c(Cc2ccccc2)nnc1SCC(=O)Nc1ccccc1N1CCOCC1,14
O=C(NCc1ccccc1)c1ccc(=O)oc1,21
COc1ccccc1C(=O)NNC(=S)NC(=O)c1sc2ccccc2c1Cl,25
COc1cccc(/C=N/NC(=O)CN2CC(c3ccccc3)CC2=O)c1O (stereo unspecified),15
c1ccc(COc2ccc(OCCN3CCCCC3)cc2)cc1,20
O=C(CNC(=S)N(Cc1ccccc1Cl)C1CCCC1)NCCCN1CCOCC1,16
CCN(CC)S(=O)(=O)c1ccc(OC)c(NC(=O)Cc2cccs2)c1,10
O=C(c1ccc(Cl)c([N+](=O)[O-])c1)N(Cc1ccc(Cl)cc1)C1CCS(=O)(=O)C1 (stereo unspecified),9
N#Cc1ccc(OCc2noc(-c3ccsc3)n2)cc1,17
O=C(NNC1CC(=O)N(c2cccc(Cl)c2)C1=O)c1cccs1 (stereo unspecified),19
C#CC[N+](C)(C)CCCCCCCCC,10
COc1ccc(O)c(C(=O)c2cnc3c(c2)CN(C)C(=O)N3)c1,2
O=C1/C(=C/c2cccs2)COc2ccccc21,17
C/C(=N\NC(=S)NCc1ccccc1)c1ccc(C#N)cc1,5
COc1ccc([N+](=O)[O-])cc1NC(=O)Cc1ccc(C)cc1,13
CCOC(=O)C1(Cc2ccc(OC)cc2)CCN(C(=O)Cn2cnnn2)CC1,12
CCOC(=O)C1CCCN(C(=O)CSc2ccc(NC(C)=O)cc2)C1 (stereo unspecified),9
CCOc1ccc(CC(=O)NNC(=O)NC2CCCCC2)cc1,20
CCCN(CCC)C1=CC(=[N+]2CCCC2)CC(C)(C)C1,16
NC(=S)Nc1ncc(C(F)(F)F)cc1Cl,29
O=C1Nc2c(c(=O)[nH]c(=O)n2-c2ccccc2F)C(C(F)(F)F)(C(F)(F)F)N1,13
CCN(c1ccc(F)cc1)S(=O)(=O)c1ccc2[nH]cc(C(=O)NCCCN3CCOCC3)c(=O)c2c1,13
CC[n+]1c(C)sc2cc(C)ccc21,17
Cc1ccc(-c2ccc([C@H]3[C@H]4C=CC[C@@H](C)[C@@H]4C(=O)N3Cc3ccccc3)c(F)c2)cc1,10
Cc1ccc(C(=O)NCC(=O)OC(C)C(=O)Nc2ccc(N(C)C)cc2)cc1C (stereo unspecified),10
COc1ccc(N2C(=O)CC(NNC(=O)c3ccc(Br)s3)C2=O)cc1 (stereo unspecified),3
O=C(CCn1c(=S)oc2ccccc21)N1CCCCC1,15
CNC(=O)c1[nH]cnc1C(=O)N[C@@H](CC(C)C)C(=O)OCc1ccccc1,10
COc1ccc(N2CCN(C(=O)C3CCN(S(=O)(=O)c4cccs4)CC3)CC2)cc1,8
CC(C)(C)CN1C(N)=NC[C@H]1Cc1ccc(O)cc1,17
N#C/C(=C\c1ccc(O)c(O)c1)C(=O)N1CCCC1,17

Additional compounds follow:
Molecule,Calb biofilm kill
CCOc1ccc(CNC(=S)N/N=C/c2ccc(OC)c(OC)c2)cc1,14
O=C(COC(=O)C1CC2C=CC1C2)Nc1ccccc1F (stereo unspecified),3
O=C(COC(=O)Cc1ccc(Cl)cc1)Nc1ccccc1-c1ccccc1,18
COc1ccc(NC(=O)C2CCCN(S(=O)(=O)c3cccnc3)C2)cc1OC (stereo unspecified),20
O=C(CSC1=NCCN1)Nc1ccccc1[N+](=O)[O-],6
CCNC(=S)N1C2CCC1CC(NC(=O)Nc1ccc(C(=O)OCC)cc1)C2 (stereo unspecified),14
COc1ccc(-c2c[n+]3c(n2-c2ccc(C)cc2)CCCCC3)cc1,16
COCCNC(=S)N/N=C(\C)c1ccc2cc(OC)ccc2c1,8
Cc1ccc(-n2ncc3c(SCC(=O)NNC(=O)c4ccco4)ncnc32)cc1,13
CCc1ccc2c(CN3CCN(S(=O)(=O)c4cccs4)CC3)cc(=O)oc2c1,7
COc1ccccc1N1C[C@@H]2C[C@@H](c3ccco3)N3CCC[C@@]23C1=O,17
CC(C)(C)c1cnnn1-c1ccc(/C=N/Nc2ccc([N+](=O)[O-])cc2)cc1,13

Random excerpt: 3 records from the list
Molecule,Calb biofilm kill
COCCNC(=S)N/N=C(\C)c1ccc2cc(OC)ccc2c1,8
Cc1nn(CC(=O)N/N=C/c2ccc(F)cc2)c(C)c1[N+](=O)[O-],7
COc1ccc(-c2c[n+]3c(n2-c2ccc(C)cc2)CCCCC3)cc1,16
